Bioassay records: PubChem BioAssay, National Center for Advancing Translational Sciences (NCATS)
TRPV1 PAM: HTS Assay for Compounds that Act as Potentiators of the Vanilloid Receptor 1. TRPV1-expressing cells, Fluo-8 calcium influx, capsaicin EC20 potentiation; host cell line not named in the record; control for the full effect not named in the record. potentiation, % at 8.33 µM. 0.02% of 320,000 active; active means potentiation above 80%; inconclusive means 30% to 80%; inactive means below 30%; note: 0% is about no effect
Target sequence (Q8NER1 whole entry, looked up): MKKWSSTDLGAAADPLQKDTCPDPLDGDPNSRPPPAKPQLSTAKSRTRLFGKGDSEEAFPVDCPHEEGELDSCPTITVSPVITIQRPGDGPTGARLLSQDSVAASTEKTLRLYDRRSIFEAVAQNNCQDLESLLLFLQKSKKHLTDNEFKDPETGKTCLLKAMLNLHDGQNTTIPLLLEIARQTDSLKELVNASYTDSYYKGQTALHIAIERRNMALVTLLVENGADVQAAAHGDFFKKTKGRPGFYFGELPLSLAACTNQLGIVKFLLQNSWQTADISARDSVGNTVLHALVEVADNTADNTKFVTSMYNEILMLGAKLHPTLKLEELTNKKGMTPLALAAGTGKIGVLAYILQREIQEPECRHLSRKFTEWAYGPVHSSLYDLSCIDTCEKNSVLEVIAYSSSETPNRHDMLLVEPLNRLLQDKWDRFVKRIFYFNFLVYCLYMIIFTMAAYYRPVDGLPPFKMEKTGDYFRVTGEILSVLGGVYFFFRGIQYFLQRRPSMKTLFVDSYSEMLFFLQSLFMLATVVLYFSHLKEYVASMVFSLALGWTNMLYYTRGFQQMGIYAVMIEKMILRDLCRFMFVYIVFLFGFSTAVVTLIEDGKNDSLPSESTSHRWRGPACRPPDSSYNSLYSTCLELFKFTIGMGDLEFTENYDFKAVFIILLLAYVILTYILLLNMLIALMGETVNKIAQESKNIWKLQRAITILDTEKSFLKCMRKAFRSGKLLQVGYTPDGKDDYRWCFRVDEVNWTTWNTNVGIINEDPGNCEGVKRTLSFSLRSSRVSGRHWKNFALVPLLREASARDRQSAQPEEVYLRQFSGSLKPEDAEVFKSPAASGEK
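TRPV1-expressing cells were cultured overnight at 35.5C and loaded with Fluo-8 calcium dye for 40 to 90 min at room temperature. After a 10 s baseline, compound was added and calcium influx was read kinetically for 3 min (ex 480/em 520 nm).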
ClpP mod: qHTS Assay for Activators of ClpP; ATP-dependent Clp protease proteolytic subunit (Bacillus subtilis (strain 168)), P80244; purified B. subtilis ClpP, FRET peptide cleavage, 20 min; Potency, µM (series often up to 57.5 µM), for the others: top-dose activity change, negative = active; 1.9% of 340,000 active; AID 651965, 2013; active = well fitted falling curve with a large enough effect; inconclusive = small, poorly fitted or top-dose-only effect; inactive = no such curve, though single readings can be large or run the other way; note: potency is the fitted concentration of half-maximal effect; the source files actives as falling curves though it sought activators and does not explain the sign; nearly all actives have a fitted effect of over 65% in size; many hits overshoot -100%
Target sequence (P80244 whole entry, looked up): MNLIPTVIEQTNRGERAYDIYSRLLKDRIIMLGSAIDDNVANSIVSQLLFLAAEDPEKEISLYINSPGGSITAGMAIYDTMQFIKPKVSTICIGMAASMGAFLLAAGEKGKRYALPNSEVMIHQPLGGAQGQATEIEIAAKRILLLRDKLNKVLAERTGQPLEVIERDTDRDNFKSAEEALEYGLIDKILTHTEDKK
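Buffer: 100 mM Tris/HCl pH8, 100 mM KCl, 0.05% low protease BSA, 2.5% glycerol, 0.01% Tween-20. ClpP 10 microg/mL final; 20 min RT; delta FRET normalized to ADEP and DMSO controls.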
gsp ag: qHTS for Agonist of gsp, the Etiologic Mutation Responsible for Fibrous Dysplasia/McCune-Albright Syndrome: qHTS. gsp mutant cells, cAMP HTRF, 30 min; control for the full effect not named in the record. Potency, µM (doses to about 76.9 µM), for the others: at the highest dose activation (cAMP increase), usual class: activators. 0.13% of 340,000 active. AID 624287, 2012; active = well fitted activation curve with a large enough effect; inconclusive = small, poorly fitted or top-dose-only effect, or another doubt; inactive = no such curve, though single readings can be large or run the other way; cell line not stated here;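 note: phosphodiesterase inhibitor Ro 20-1724 added with compounds to block cAMP breakdown; potency is the fitted concentration of half-maximal effect; nearly all actives have a fitted effect of over 60% in size; about a fifth of the inactives were tested at one dose only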
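Cells stably selected in G418 were plated at 2000/well, grown 16-24 hr, then given compounds in DMSO with the PDE inhibitor […] (300 uM solution added) for 30 min at 37C; cAMP was read by HTRF.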
gsp antagonist: qHTS for Antagonists of gsp, the Etiologic Mutation Responsible for Fibrous Dysplasia/McCune-Albright Syndrome: qHTS; gsp-mutant cells, cAMP HTRF, 30 min; control for the full effect not named in the record; Potency, µM (doses to about 76.9 µM), without a hit: at the highest dose activity change, negative = inhibition, most hits filed as inhibitors; 0.4% of 340,000 active; AID 624288, 2012; active = falling curve of any shape with a large fitted effect; inconclusive = falling curve, mostly with a smaller effect; inactive = flat or rising curve; cell line not stated here;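 note: intracellular cAMP measured with PDE inhibitor Ro 20-1724 present during compound exposure; potency is the fitted concentration of half-maximal effect; % is set by controls: 0 for no effect and ±100 for the full control effect; nearly all actives have a fitted effect of over 65% in size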
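Measurement of cellular cAMP by homogeneous time-resolved fluorescence following a 30 min compound exposure at 37C. The PDE inhibitor […] was present throughout; the assay buffer was DPBS with 0.05% BSA and 0.005% Tween 20.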
Sfp PPTase inh: qHTS Assay for Inhibitors of Bacillus subtilis Sfp phosphopantetheinyl transferase (PPTase); Potency, µM, for inactives: max response, negative = inhibition, actives largely listed as inhibitors; 4'-phosphopantetheinyl transferase ffp (Bacillus subtilis), Q9F4F7; 3.5% of 310,000 active; Biochemical Sfp PPTase activity, qHTS; active = well fitted inhibition curve with a large enough effect; inconclusive = small, poorly fitted or top-dose-only effect, or another doubt; inactive = no such curve, though single readings can be large or run the other way;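 note: the enzyme is Sfp with the accession as filed and its product quenches rhodamine fluorescence; potency is the fitted concentration of half-maximal effect; 0% = enzyme reaction without inhibitor and -100% = no enzyme wells; top concentration of the series not given in the record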
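Fluorescence-quenching assay: 15 nM Sfp-PPTase preincubated 15 min at room temperature with compound, then 5 uM rhodamine-CoA and 12.5 uM BHQ-2-labelled YbbR peptide added. Fluorescence (ex 525/em 598 nm) read at start and after 30 min; difference gives rate.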
Menin MLL FP FL: qHTS Assay for Inhibitors Targeting the Menin-MLL Interaction in MLL Related Leukemias: Competition With Fluorescein Labeled MLL-derived Peptide. Fluorescence polarization, fluorescein-MLL peptide displacement from menin. FP activity change, % at 61.4 µM. 290,000 tested, under 10 active. AID 1766, 2009; inconclusive = falling polarisation curve, or a change in total fluorescence; inactive = total fluorescence flat and polarisation flat or rising; no compound was filed as active; the % refers to the polarisation; negative = inhibition;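 note: % of control where 0% means no effect; inhibitors lower the polarisation; unlabelled MLL peptide was the positive control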
D2 potentiator: Beta-Arrestin HTS for Positive Allosteric Modulators of the Human D2 Dopamine Receptor: Potentiators; potentiation, % (no concentration beside the values); D(2) dopamine receptor (Homo sapiens), P14416; 0.23% of 360,000 active; DiscoveRx D2 beta-arrestin cells, luminescence, 90 min; 100% = 57 uM dopamine signal; active = potentiation of 50% or more; inconclusive = 30% to 50%; inactive = 30% or less;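 note: compound concentration not given in the record; tested on top of an EC20 dose of dopamine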
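PathHunter D2 cells, attached overnight at 37 deg C, received compound in DMSO plus dopamine at EC20 (50 nM final) for 90 min at 37 deg C. Beta-arrestin recruitment was read as luminescence after 1 h with detection reagent at ambient temperature.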
Numbers without * were called inactive; [ ] = remark or other dose.

For Cn1c(=O)[nH]c(=O)c2c1nc(Br)n2CCCc1ccccc1 the results were TRPV1 PAM -7, Sfp PPTase inh 22% and Menin MLL FP FL 2.5.
`Cc1ccc(S(=O)(=O)/N=C(/Nc2ccc([N+](=O)[O-])cc2[N+](=O)[O-])c2ccccc2)cc1` gave ClpP mod 2.9%, gsp ag -4%, gsp antagonist inconclusive and D2 potentiator 6.
For N#Cc1sc2nc3c(c(-c4cccnc4)c2c1N)CCC3 the results were TRPV1 PAM -5, ClpP mod 0.1%, gsp ag 0%, gsp antagonist 25%, Sfp PPTase inh 6%, Menin MLL FP FL -0.5 and D2 potentiator -2.
For Cc1cc(C)n(-c2nc(SCC(=O)O)c3c4c(sc3n2)COC(C)(C)C4)n1 the results were TRPV1 PAM -4, gsp ag 3%[15.4 µM], gsp antagonist -19%, Sfp PPTase inh -15%, Menin MLL FP FL 0.4 and D2 potentiator -4.
Cc1onc(-c2c(F)cccc2Cl)c1C(=O)NC1CCSC1=O (stereo unspecified) was read as TRPV1 PAM -1, ClpP mod 1.5%, gsp ag 13%, gsp antagonist 9%, Sfp PPTase inh 9%, Menin MLL FP FL -4.6 and D2 potentiator -18.
`COc1ccc(CCNC(=O)C2CCN(S(=O)(=O)c3ccc(OC)c(OC)c3)CC2)cc1` gave TRPV1 PAM 5, ClpP mod -1.3%, gsp ag inconclusive, gsp antagonist -8%, Sfp PPTase inh 8%, Menin MLL FP FL 4.1 and D2 potentiator -2.
O=C(CN1CCN(C(=O)c2cccc(S(=O)(=O)N3CCCC3)c2)CC1)Nc1cccc(F)c1 was read as TRPV1 PAM 12, ClpP mod 0.4%, gsp ag 12%, gsp antagonist -23% and D2 potentiator -23.
For Cc1nn(C)c(C)c1CNC(=O)Nc1ccc(Cl)cc1 the results were TRPV1 PAM 1, ClpP mod 1.1%, gsp ag 2%[15.4 µM], gsp antagonist -4%, Sfp PPTase inh 0%, Menin MLL FP FL 1.6 and D2 potentiator -12.
For Cc1ccc(C)c(Nc2nc3ccccc3[nH]2)c1 the results were gsp ag 17%, gsp antagonist -3% and D2 potentiator -6.
For COc1ccc(-c2cc(C(=O)Nc3ccc(C)c(N)c3)c3ccccc3n2)cc1 the results were TRPV1 PAM 0, ClpP mod -2.6%, gsp ag -3%[15.4 µM], gsp antagonist -16%, Sfp PPTase inh -3%, Menin MLL FP FL 0.0 and D2 potentiator -7.
`N#CC(c1ccccc1O)N1N=C(c2ccccc2)CC1c1ccccc1` (stereo unspecified) gave TRPV1 PAM -4, ClpP mod -15%, gsp ag 0%, gsp antagonist -6%, Sfp PPTase inh inconclusive, Menin MLL FP FL 3.2 and D2 potentiator -11.
`COc1cc(C(=O)NC2CCN(Cc3nnnn3Cc3cccs3)CC2)cc(OC)c1OC` gave TRPV1 PAM 3, ClpP mod -1.3%, gsp ag 9%, gsp antagonist 2%, Sfp PPTase inh -11%, Menin MLL FP FL -1.3 and D2 potentiator 8.
`CN1CCN(S(=O)(=O)c2ccc(N(C)Cc3cccc(F)c3)nc2)CC1` gave TRPV1 PAM 5, ClpP mod -2.1%, gsp ag 0%, gsp antagonist 7% and D2 potentiator -9.
Screening COc1ccc(CCN2CC(O)=C(c3nc4ccccc4c(=O)[nH]3)C2=N)cc1OC returned TRPV1 PAM 9, ClpP mod 22µM*, gsp ag -15%, gsp antagonist 3%, Sfp PPTase inh -6%, Menin MLL FP FL 4.3 and D2 potentiator 6.
`Cc1cc(C)c2nc(N(CCCN(C)C)C(=O)c3ccc(S(=O)(=O)N4CCCCCC4)cc3)sc2c1` gave TRPV1 PAM 23, ClpP mod -2.3%, gsp ag 6%[15.4 µM], gsp antagonist -3% and D2 potentiator -15.
For C=CCn1c(SCc2ccc(Cl)c(Cl)c2)nnc1C(CO)NC(=O)c1ccc(OC)cc1 (stereo unspecified) the results were TRPV1 PAM 15, ClpP mod -3.6%, gsp ag 2%, gsp antagonist -17%, Sfp PPTase inh -7%, Menin MLL FP FL inconclusive and D2 potentiator 14.
For CCS(=O)(=O)N1CCCC(C(=O)NCCCN2CCCC2=O)C1 (stereo unspecified) the results were TRPV1 PAM -15, ClpP mod -1.3%, gsp ag 15%, gsp antagonist 17%, Sfp PPTase inh 7%, Menin MLL FP FL -1.2 and D2 potentiator -20.
Screening O=C1CC(N2CCN(Cc3ccc4c(c3)OCO4)CC2)C(=O)N1Cc1ccc(N2CCCC2=O)cc1 (stereo unspecified) returned TRPV1 PAM 3, ClpP mod 0.7%, gsp ag -26%, gsp antagonist -6%, Sfp PPTase inh -5%, Menin MLL FP FL 1.3 and D2 potentiator -17.
`COc1ccc2c(c1)CCC1C2=NN(/C(C)=C\C(C)=O)C1c1ccc(F)cc1` (stereo unspecified) gave TRPV1 PAM -6, ClpP mod -9.9%, gsp ag -2%, gsp antagonist 49%[activator], Sfp PPTase inh 45µM*, Menin MLL FP FL 17 and D2 potentiator 8.
Screening COCCOC(=O)N/C=C\c1nc2ccccc2c(=O)[nH]1 returned TRPV1 PAM 0, ClpP mod -6.1%, gsp ag -2%, gsp antagonist -12%, Sfp PPTase inh 12%, Menin MLL FP FL 3.8 and D2 potentiator -8.
COc1ccc(C(=O)N/N=C/c2ccc(OC(=O)c3cccc4ccccc34)c([N+](=O)[O-])c2)cc1 was read as TRPV1 PAM 3, ClpP mod 0.2%, gsp ag -15%, gsp antagonist -13%, Sfp PPTase inh -21%, Menin MLL FP FL 2.1 and D2 potentiator 11.
For CN(C)C(CNC(=O)c1cccs1)c1ccco1 (stereo unspecified) the results were TRPV1 PAM -2, ClpP mod -1.8%, gsp ag 3%, gsp antagonist 3% and D2 potentiator -9.
For Cn1c(N)c(C(=O)CSc2n[nH]c(N)n2)c(=O)n(C)c1=O the results were TRPV1 PAM -3, ClpP mod -0.7%, gsp ag 24%, gsp antagonist 7% and D2 potentiator -31.
Screening CCOC(=O)C1CCCN(C(=O)c2c(-c3ccccc3Cl)noc2C)C1 (stereo unspecified) returned TRPV1 PAM -3, ClpP mod -1.0%, gsp ag 26%, gsp antagonist 29%, Sfp PPTase inh 10%, Menin MLL FP FL -0.6 and D2 potentiator 6.
For CCCc1nc(N2CCCC2)c(C#N)c2c1CCCC2 the results were TRPV1 PAM -2, ClpP mod 32µM*, gsp ag 6%, gsp antagonist -10%, Sfp PPTase inh 13%, Menin MLL FP FL 3.6 and D2 potentiator -15.
`O=c1[nH]c(C2CCN(S(=O)(=O)c3ccc(C(F)(F)F)cc3)CC2)nc2c1nnn2Cc1ccccc1` gave TRPV1 PAM 1, gsp ag -5%[15.4 µM], gsp antagonist -16%, Sfp PPTase inh -3%, Menin MLL FP FL -6.4 and D2 potentiator -22.
`CC(NC(=O)CCCCCCN1C(=O)c2ccccc2C1=O)c1ccc2c(c1)CCCC2` (stereo unspecified) gave TRPV1 PAM 2, ClpP mod -0.2%, gsp ag 7%, gsp antagonist -10%, Sfp PPTase inh 9%, Menin MLL FP FL -4.4 and D2 potentiator -1.
`C[C@@]12C(=O)N(CC3CCCO3)CC(=O)N1[C@H]1c3cc(Cl)ccc3OC[C@@H]1[C@@H]2c1ccccc1` (stereo partly specified) gave ClpP mod -0.1%, gsp ag -10%, gsp antagonist -12% and D2 potentiator -2.
Screening CSc1ccc(NC(=O)Nc2cccn(Cc3ccccc3F)c2=O)cc1 returned TRPV1 PAM -3, ClpP mod inconclusive, gsp ag -6%, gsp antagonist -17%, Sfp PPTase inh 19%, Menin MLL FP FL -4.3 and D2 potentiator 10.
Screening Cc1ccc(S(=O)(=O)Nc2nccs2)cc1[N+](=O)[O-] returned TRPV1 PAM 3, gsp ag -21%[15.4 µM], gsp antagonist -4%, Sfp PPTase inh -5%, Menin MLL FP FL -0.3 and D2 potentiator 1.
For O=C(CO/N=C/c1ccccc1O)NNC(=O)c1ccccc1Cl the results were TRPV1 PAM 5, ClpP mod -1.3%, gsp ag -35%[inhibitor], gsp antagonist -5%, Sfp PPTase inh 15%, Menin MLL FP FL -1.8 and D2 potentiator -6.
`CCOC(=O)c1ccc(CNC(=O)c2n[nH]c(=O)c3ccccc23)o1` gave TRPV1 PAM -7, ClpP mod 0.2%, gsp ag -14%, gsp antagonist 7%, Sfp PPTase inh 5%, Menin MLL FP FL 4.7 and D2 potentiator 5.
Screening Cc1ccc(S(=O)(=O)Cc2ccc(C(=O)N3CCCC3)o2)cc1 returned TRPV1 PAM -2, ClpP mod -0.8%, gsp ag -57%[inhibitor], gsp antagonist -1%, Sfp PPTase inh 5%, Menin MLL FP FL -1.1 and D2 potentiator -16.
`O=S(=O)(Cc1ccccc1)N(O)c1ccccc1` gave TRPV1 PAM -5, gsp ag 1%[15.4 µM], gsp antagonist 6%, Sfp PPTase inh 50µM*, Menin MLL FP FL -16 and D2 potentiator 0.
Screening O=C(Nc1c(Cl)cccc1Cl)c1cc(-c2ccco2)on1 returned TRPV1 PAM 5, gsp ag -16%, gsp antagonist inconclusive, Sfp PPTase inh 12% and D2 potentiator -4.
Cn1cc(Br)c(C(=O)NC(=S)Nc2ccc(S(N)(=O)=O)cc2)n1 was read as TRPV1 PAM -4, gsp ag -3%[15.4 µM], gsp antagonist 0%, Sfp PPTase inh -81%, Menin MLL FP FL -2.5 and D2 potentiator -8.
Screening Cc1ccc(NC(=O)Cc2nnc(SCC(=O)c3ccc(Br)cc3)n2C)cc1 returned TRPV1 PAM 4, ClpP mod 1.2%, gsp ag -4%, gsp antagonist 12%, Sfp PPTase inh 23%, Menin MLL FP FL 4.1 and D2 potentiator -4.
`NC1=NC(=O)C(Cc2cccc(Cl)c2Cl)S1` (stereo unspecified) gave TRPV1 PAM -2, ClpP mod 1.3%, gsp ag -33%[15.4 µM], gsp antagonist 10%, Sfp PPTase inh 12%, Menin MLL FP FL 4.0 and D2 potentiator -4.
